H5N1 CPE: MDCK cell protection from H5N1 avian flu; cytopathic effect, luminescence, 72 h; active compounds read high; no value below 0 was filed and about half of the inactive calls have no number; reference of the scale not given here; inhibition, % at 50 µM; 96,000 compounds, 0.07% hits; AID 740; in the data active = inhibition above about 25%
Starred values were filed as active, the others as inactive; i = inactive. The list is partial; rates above refer to the full screens.

SMILES	H5N1 CPE
CC(=O)Nc1ccc(SCC(=O)c2cc(C)n(C)c2C)cc1	6.8
CCCCOc1ccc(CN2CCN(CC)CC2)cc1	i
C/C(=N\NC(=O)Cc1csc(N2CCOCC2)n1)c1ccccc1	3.6
CC(NC(=O)CCNS(=O)(=O)c1ccc2c(c1)c(=O)n(C)c(=O)n2C)c1ccccc1 (stereo unspecified)	1.2
COc1ccccc1NS(=O)(=O)c1ccc(C)c(C(=O)NCC2CCCO2)c1 (stereo unspecified)	i
C=CCN1C(=O)C(O)(CC(=O)c2ccc(N)cc2)c2ccccc21 (stereo unspecified)	i
O=C(Cc1cccc2ccccc12)NNC(=O)c1cccs1	4.8
OCCNc1c2c(nc3ccccc13)CCCC2	2.7
O=C1c2cccc3c(Nc4ccccc4Cl)c([N+](=O)[O-])cc(c23)C(=O)N1CCO	i
O=C(CSc1nnc(-c2cccnc2)o1)c1cc2ccccc2oc1=O	i
O=C(CC1C(=O)NCCN1C(=O)Nc1ccccc1)Nc1ccc2c(c1)OCCO2 (stereo unspecified)	0.6
O=C(O)CCOc1ccc2c(c1)OCCO2	i
COc1cc(NC(=O)C2CCCN(S(=O)(=O)c3cnc[nH]3)C2)cc(OC)c1 (stereo unspecified)	1.8
COc1ccc(NC(=O)CSc2nc(-c3ccc(C)cc3)cc(C(F)(F)F)c2C#N)cc1	i
O=C(Nc1ccccc1F)C1C2C=CC3(O2)C1C(=O)N(c1cccnc1)C3C(=O)NC1CCCCC1 (stereo unspecified)	i
Cn1c(Sc2nc3ccccc3n2C)nc2ccccc21	1.6
O=C(O)C1CCCCC1C(=O)Nc1ccc2c(c1)CCC2 (stereo unspecified)	i
O=C(O)CCSc1nc(C(F)(F)F)cc(=O)n1-c1ccccc1	0.1
CCOC(=O)Cc1csc(NC(=O)CSc2nc3sc(C(=O)O)c(C)c3c(=O)[nH]2)n1	0.3
Cc1c(-n2c(=S)[nH]c3ccccc3c2=O)c(=O)n(-c2ccccc2)n1C	0.5
COCCN1CN=C(Nc2nc3ccccc3o2)NC1	i
Cc1ccc(C(c2nnnn2CS(=O)(=O)c2ccc(C)cc2)N2CCC(C(N)=O)CC2)cc1 (stereo unspecified)	0.4
Cn1c(=O)c(=O)n(C)c2cc(S(=O)(=O)N3CCCCCC3)ccc21	i
CN(Cc1cc2ccccc2[nH]c1=O)C(=O)C1CCCCC1	i
OCCN1CCN(CC(O)COc2ccc3ccccc3c2)CC1 (stereo unspecified)	i
Cc1c(C)n(CC(O)CN2CCCCC2)c2ccccc12 (stereo unspecified)	i
CNC(=O)Cn1c(=O)n(C)c2ccccc21	i
COc1ccc(OCCOC(=O)c2cccc(-n3cnnn3)c2)cc1	i
CC(C)(C)C(=O)/C=C(\N)c1ccncc1	i
CC(=O)N1CCN(S(=O)(=O)c2ccc(S(=O)(=O)NC3CC3)cc2)CC1	0.3

Part of the list above in a different format:
OCCN1CCN(CC(O)COc2ccc3ccccc3c2)CC1 (stereo unspecified)
  H5N1 CPE: i
Cc1c(C)n(CC(O)CN2CCCCC2)c2ccccc12 (stereo unspecified)
  H5N1 CPE: i
CNC(=O)Cn1c(=O)n(C)c2ccccc21
  H5N1 CPE: i

Pulled one by one from the list above (3):
SMILES	H5N1 CPE
CC(NC(=O)CCNS(=O)(=O)c1ccc2c(c1)c(=O)n(C)c(=O)n2C)c1ccccc1 (stereo unspecified)	1.2
Cc1c(C)n(CC(O)CN2CCCCC2)c2ccccc12 (stereo unspecified)	i
O=C(O)C1CCCCC1C(=O)Nc1ccc2c(c1)CCC2 (stereo unspecified)	i

Additional results:
SMILES	H5N1 CPE
COc1ccc(C2c3cc(OC)c(OC)cc3CCN2C2CC(=O)N(c3ccccc3)C2=O)cc1OC (stereo unspecified)	i
CCCCCCCC(=O)NN1CCOCC1	i
CC(C)CCNC(=O)C1CCN(S(=O)(=O)c2ccc3c(c2)CCC(=O)N3)CC1	1.4
CCOc1cc(S(=O)(=O)N2CCC(Cc3ccccc3)CC2)c(OCC)cc1-n1cnnn1	0.6
COc1ccc(CN(CC(=O)NCc2ccco2)C(=O)CCC(=O)Nc2ccccn2)cc1	0.4
O=C1CN2C(=Nc3ccc(Br)cc3C2c2ccccc2)CCN1 (stereo unspecified)	i
CC(C)NC(=O)Cn1c(SCC(=O)N2c3ccccc3CC2C)nc2ccccc21 (stereo unspecified)	0.2
N#CCC(CNc1ncc(C(F)(F)F)cc1Cl)OC(=O)c1ccc(Cl)cc1Cl (stereo unspecified)	9.2
Fc1ccc(NC(=S)NCCc2ccccc2)c(F)c1F	i
CCN1C(=O)NC(c2cc(Br)ccc2OC)C(C(=O)OC)=C1C (stereo unspecified)	i
Fc1ccccc1COc1ccc(/C=N/n2cnnc2)cc1	i
COc1cc2c(cc1NC(=O)Nc1ccccc1)oc1ccccc12	1.6
Cc1occc1-c1nnc(SCc2cc(=O)n3cc(Br)ccc3n2)n1C	1.8
Cc1[nH]nc(-c2ccc(O)c(C)c2O)c1-c1cnn(-c2ccccc2)c1	0.1
CCOc1ccc(S(=O)(=O)N2CCCC2)cc1	i
CS(=O)(=O)Nc1ccc(C(=O)NCc2cccnc2)cc1	0.9
COc1cccc(C2/C(=C(/O)c3ccccc3)C(=O)C(=O)N2CCCC(=O)O)c1 (stereo unspecified)	i
COc1ccc2c(CC#N)c[nH]c2c1	i
COc1ccc(-n2c(SCC(=O)NNC(=O)c3ccccc3C)nnc2-c2ccncc2)cc1	1.5
Cc1cc(Nc2ccc(C)c(Br)c2)n2nc(C)nc2n1	2.5
COc1ccc(-c2cc(CCCC(=O)N3CCN(c4ccc(OC)cc4)CC3)no2)cc1	5.6
Cc1ccc(-c2nc(Nc3ccccc3)n[nH]2)cc1	0.1
COc1ccc(-n2c(-c3ccccc3)nc(=S)c3c2CCCC3)cc1	0.5
O=C(Nn1cnnc1)C(c1ccccc1)c1ccccc1	i
CCN(CC)CCNC(=O)c1cc2c(-c3ccc(Cl)cc3)nn(C)c2s1	i
CSc1nnc(-c2ccc(Cl)cc2Cl)o1	7.7
COCCOC(=O)C1=C(C)NC(=O)NC1c1c(F)cccc1Cl (stereo unspecified)	0.8
CCC(OC(=O)c1cccs1)C(=O)NCc1ccco1 (stereo unspecified)	6.5
Cc1nnc2sc(-c3cccc4ccccc34)nn12	2.6
NC1=NC(c2ccccc2Cl)n2c(nc3ccccc32)N1 (stereo unspecified)	i
OCCn1nc2c3ccccc3nc-2n(-c2ccccc2)c1=S	0.3
Cc1cc2ncn(/N=C/c3ccc(-c4ccccc4)o3)c2cc1C	2.4
Cc1cc(-c2nnc(-c3ccccc3)c(-c3ccccc3)n2)c(C)o1	0.8
CCOC(=O)Cc1nnc(NC(=O)CSc2nnc3c4ccccc4n(C(C)C)c3n2)s1	0.3
CCCCCC(=O)Nc1ccccc1N1CCN(c2ccccc2)CC1	2.0
CCCC(C(=O)NCc1ccco1)N(C(=O)CNS(=O)(=O)c1ccccc1)C1CCCC1 (stereo unspecified)	0.1
CCN(CC)c1ccc(C2C(C(=O)OCCOC(C)C)=C(C)NC3=C2C(=O)CCC3)cc1 (stereo unspecified)	i
CS(=O)(=O)NCc1nnc(SCC(=O)NC2CCCCC2)n1-c1ccc(F)cc1	0.5
CCC1C2CN(C(C)=O)CC=C2C(C#N)=C(N)C1(C#N)C#N (stereo unspecified)	i
CCOC(=O)CSc1nc2nc(C)cc(C)n2n1	1.1
Cc1ccc(NC(=O)c2ccco2)c(NC(=O)CN2C(=O)c3ccccc3C2=O)c1	0.2
O=C(O)c1ccc(NS(=O)(=O)c2ccc(Cl)cc2)cc1	0.5
CCN1CCCC1CNC1=NCCCCC1 (stereo unspecified)	0.5
O=C1c2cccnc2C(=O)N1CO	1.2
COc1ccc(C2CC(c3ccc(F)cc3)Nc3nc(N)nn32)cc1OC (stereo unspecified)	i
O=C(Nc1nc(-c2ccccc2)c(-c2ccccc2)o1)c1ccc(F)cc1	i
CC(=O)Nc1ccc(-c2cc(-c3ccc(NC(C)=O)cc3)nc(-c3ccccc3)n2)cc1	0.5
Cc1nn2c3c(cnc2c1-c1ccccc1)C(=O)CC(c1ccco1)C3 (stereo unspecified)	0.7
CCCCCCCc1c(C)nc(N2CCOCC2)[nH]c1=O	i
O=C(Nc1cnn(C23CC4CC(CC(C4)C2)C3)c1)c1cnn2cccnc12	0.7
COC(=O)Nc1ccc(Oc2ccccc2)cc1	0.6
O=C(NCc1cccc(C(F)(F)F)c1)C1CC(c2ccccc2[N+](=O)[O-])=NO1 (stereo unspecified)	2.0
CCCC[n+]1cc(/N=C(\[O-])OC)on1	i
O=C(C1CC1)N(CCc1ccccc1)Cc1nc2ccccc2c(=O)[nH]1	0.6
CCC(=O)Nc1cccc(-c2nnc(SCC(=O)NCc3ccco3)n2C)c1	1.0
COc1cc([C@@H]2[C@H]3CN(C)CC=C3C(C#N)=C(N)C2(C#N)C#N)cc2c1OCO2	2.7
C=CCn1c(O)c(C(C)=NCCc2ccccc2)c(=O)[nH]c1=O	0.6
Cc1ccc(C)c(NC(=O)CSc2nnc(-c3ccccc3C)o2)c1	i
CCOc1ccc(S(=O)(=O)N2CCN(C)CC2)c(C)c1C	1.1
O=C(Nn1cnc2ccccc2c1=O)c1ccccc1Cl	2.2

Continued (4 carried over from the part before).
SMILES	H5N1 CPE
C=CCn1c(O)c(C(C)=NCCc2ccccc2)c(=O)[nH]c1=O	0.6
Cc1ccc(C)c(NC(=O)CSc2nnc(-c3ccccc3C)o2)c1	i
CCOc1ccc(S(=O)(=O)N2CCN(C)CC2)c(C)c1C	1.1
O=C(Nn1cnc2ccccc2c1=O)c1ccccc1Cl	2.2
Cc1cccc(NC(=O)CSc2nnc(CSc3nc(C)cc(C)n3)o2)c1	1.1
O=C(Nc1ccc2c(c1)OCO2)c1cc2ncc(Br)cn2n1	i
COC(=O)C1=C(C)Nc2nc(-c3ccccc3)nn2C1c1ccc(C)o1 (stereo unspecified)	1.0
O=C(NCc1ccco1)C(NS(=O)(=O)c1cccc2nsnc12)c1ccccc1 (stereo unspecified)	i
Cc1csc(NC(=O)CNS(=O)(=O)c2cccs2)n1	1.8
Cc1ccc(C)c2[nH]c(=O)c(CCNC(=O)c3ccc4c(c3)OCO4)cc12	i
COCCCNC(=O)c1ccc(CS(=O)(=O)c2ccc(OC)cc2)o1	i
CCC(=O)N1CCc2cc(Br)cc(S(=O)(=O)CCC(=O)NCc3ccco3)c21	2.2
O=C(NCc1cccnc1)c1cc(-c2ccco2)on1	0.5
Cc1ccc(C(=O)N(CN2CCCC2=O)c2ccc(F)cc2)cc1C	i
COc1ccccc1-c1noc(CCC(=O)Nc2cccc(C(F)(F)F)c2)n1	i
C=CCn1c(=N)c(C(=O)NCCCOC)cc2c(=O)n3ccccc3nc21	0.3
COc1ccc(N2C(=O)C(Cl)=C(N3CCN(Cc4ccccc4)CC3)C2=O)cc1	i
CCOC(=O)/C=C1\SCC(=O)N1CCOc1cccc(Br)c1	i
Cn1cc(C(=O)NC2CCCCCCC2)c(=O)c2cc(S(=O)(=O)N3CCCC3)ccc21	i
CC1(C(=O)Nc2nccs2)Cc2ccccc2C(=O)O1 (stereo unspecified)	0.3
CCOC(=O)N1CCN(c2nc(-c3cccs3)cc(C(F)(F)F)n2)CC1	i
CCOC(=O)C1=C(C)OC(N)=C(C#N)C1c1c(C)nn(-c2ccc(C)cc2)c1Cl (stereo unspecified)	i
C/C(=N\NC(=O)C(=O)Nc1cccc(C(F)(F)F)c1)c1ccc(Cl)s1	i
CCCN1C2CCCC1CC(NC(=O)Nc1cccc(C(C)=O)c1)C2 (stereo unspecified)	i
O=C(CSc1nnnn1C1CCCC1)N1CCCc2ccccc21	i
CSCC[C@H](NC(=O)OC(C)(C)C)c1nnc(SCC(N)=O)o1	i
COc1ccc(N(C(=O)COc2ccccc2)C2C=CS(=O)(=O)C2)c(OC)c1 (stereo unspecified)	2.8
N#CCCN(C1CCCCC1)S(=O)(=O)CCOc1ccccc1	i
COc1ccc(NC(=O)C2CCCN(S(=O)(=O)c3cccc4cccnc34)C2)cc1OC (stereo unspecified)	0.0
CCOc1cc(CNCCc2ccc(S(N)(=O)=O)cc2)ccc1OCc1ccc(Cl)cc1	i
O=C1CN(S(=O)(=O)c2ccc(Cl)cc2)CC(=O)N1CCc1ccccc1	1.3
O=C(O)[C@H]1CCCC[C@H]1C(=O)NCCc1ccccc1	i
CCOc1ccc(C2c3cc(OC)c(OC)cc3CC(=O)N2c2ccc(OC)cc2)cc1 (stereo unspecified)	0.6
CC(C)c1nc2cc3ccccc3cc2[nH]1	i
COC(=O)CSc1nc2ccccc2n1CC(=O)N(C(C)C)C(C)C	0.0
C=CCN(C(=O)CNC(=O)c1ccco1)C(C(=O)NC1CCCCC1)c1ccc(OC)cc1OC (stereo unspecified)	0.6
CCC(Sc1nc2ccccc2c2nc3ccccc3n12)C(=O)NCc1ccco1 (stereo unspecified)	i
N#CC(C(=O)Nc1ccccc1)=C1Nc2ccccc2N1	3.7
COc1cc(Br)cc(CN2CCN(C)CC2)c1O	i
CCOC(=O)c1c(NC(C)=O)sc2c1CCCNC2=O	1.4
C[C@H](NC(=O)C1(c2ccccc2)CCN(C(=O)[C@H]2CSCN2C(=O)OC(C)(C)C)CC1)C(=O)O	1.2
Nc1ccc(N(c2ccccc2)c2ccc(N)cc2)cc1	i
O=C(NC(=O)c1ccncc1)NC(c1ccccc1)c1ccccc1	0.6
O=C(CSCc1ccccc1)Nc1ccc(Cl)cn1	1.0
Brc1ccccc1OCCCn1cnc2ccccc21	0.5
O=C(c1ccccc1)c1coc2ccc(O)c(Cl)c12	1.7
